# Beta2AR agonist – activates human beta-2 adrenergic receptor causing internalization | P07550 | Am2.2-beta2AR cells, FAP receptor internalization, flow cytometry; reference of the scale not given here | response, % (concentration not given with the values) | 0.43% of 340,000 active | AID 504454;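 active means response above a set limit, near 3 SD of response in nonfluorescent compounds, cut at about 42% in these data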;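 further: stock transfer was 100 nL into about 11 µL; a reference agonist was the positive control; negative values mostly stem from fluorescent compounds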
# Ecoli rRNA inh – selective bacterial rRNA inhibition in E. coli. E. coli WT GFP vs humanized-ribosome RFP mutants, fluorescence, 24 h; hits give low values; DMSO median 0, no signal -100. GFP signal change (wild-type ribosome), % (concentration not given with the values). 1.6% of 350,000 active;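 active means significant combined selectivity score with lowered wild-type GFP, culture density cut under 30%, mutant RFP and density less affected; inactive means any of these conditions unmet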; further: one replicate is shown; some compounds called inactive have numbers as strong as hits
# FGF22 binding – FGF22 (human) thermal shift binding. calls only at 9.99 µM. recombinant FGF22 thermal shift, SYPRO orange fluorescence; percent of sucrose octasulfate shift, DMSO zero. 1.5% of 340,000 active;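 active means melting point raised past a set limit in the mean and every replicate; three in four hits are not shown here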
# ALR H2O2 inh – blocks human ALR sulfhydryl oxidase activity | P55789 | purified ALR, DTT oxidation, H2O2 HRP-luminol luminescence | inhibition, % (test concentration not listed) | 3.8% of 290,000 active | AID 485317;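 active means mean and each replicate at 75% or more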;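 further: stock transfer was 7.5 nL into about 7.5 µL; 0% = neutral wells and 100% = wells with inactivated enzyme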
# Target sequence (P55789 whole entry, looked up): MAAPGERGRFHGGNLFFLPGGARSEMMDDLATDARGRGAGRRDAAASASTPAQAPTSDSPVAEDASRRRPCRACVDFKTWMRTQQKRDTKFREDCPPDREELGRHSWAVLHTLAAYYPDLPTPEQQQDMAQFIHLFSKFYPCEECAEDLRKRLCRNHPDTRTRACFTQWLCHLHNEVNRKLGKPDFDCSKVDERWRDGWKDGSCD
# UCH37 inh – inhibitors of human deubiquitinating enzyme UCH37. purified proteasome/UCH37, Ub-AMC cleavage fluorescence. Q9Y5K5. inhibition, % (no concentration beside the values). 0.33% of 330,000 active;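 active means mean of two replicates above 20%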;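 further: 0% = compound-free wells with enzyme and 100% = wells lacking proteasome; stock transfer was 100 nL into about 20 µL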
#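 Schedule: 30 min plus 25 min, room temperature / Material: human UCH37 within purified proteasomes / Technique: AMC fluorescence intensity at 355/460 nm / Buffer or medium: pH 7.4 Tris-HCl (50 mM) with ovalbumin, ATP-MgCl2, DTT / Controls: wells without proteasome as full block, compound-free enzyme plus substrate as uninhibited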
# Ecoli growth – E. coli growth inhibition; OD600 absorbance (concentration not given with the values); AID 1053175; Escherichia coli growth, OD600, 23 h; hits give low values; 0.21% of 330,000 active;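 active means OD600 absorbance below the run mean of sample wells minus 3.6 SD, in any replicate, cut at about 0.56 in these data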;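 further: stock transfer was 300 nL into about 60 µL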
# HNF4A DNA FP – change in binding of human HNF4 alpha to DNA; activity change, % at 10 µM; P41235; AID 1224865; 0.3% of 360,000 active; HNF4a-FITC DNA binding, fluorescence polarization, 1 h; in the data active means activity change above about 30%, passing the limit was not always enough;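 further: controls were the assay level and a saturating level of protein; the project sought stronger binding though the title names inhibitors; some compounds called inactive have numbers as strong as hits; positive values seem to mean higher polarization but the record does not say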
# Target sequence (P41235 whole entry, looked up): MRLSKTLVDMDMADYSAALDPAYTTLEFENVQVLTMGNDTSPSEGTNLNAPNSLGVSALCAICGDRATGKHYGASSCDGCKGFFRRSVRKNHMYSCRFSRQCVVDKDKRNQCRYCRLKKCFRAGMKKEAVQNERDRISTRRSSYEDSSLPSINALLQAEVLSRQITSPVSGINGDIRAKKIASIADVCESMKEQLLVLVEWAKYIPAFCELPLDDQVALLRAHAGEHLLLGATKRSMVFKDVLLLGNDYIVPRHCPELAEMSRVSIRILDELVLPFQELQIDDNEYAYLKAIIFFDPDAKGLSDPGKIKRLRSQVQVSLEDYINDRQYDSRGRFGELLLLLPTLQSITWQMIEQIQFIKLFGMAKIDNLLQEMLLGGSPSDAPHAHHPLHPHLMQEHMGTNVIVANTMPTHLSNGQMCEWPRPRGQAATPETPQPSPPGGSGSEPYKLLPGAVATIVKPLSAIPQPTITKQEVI
# Ecoli rRNA inh OD600 – second read-out of Ecoli rRNA inh, no call of its own (marks repeat the call); OD600 change, %; measured here: OD600 growth;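 optical density of the mix in the first replicate; 0 = DMSO median and -100 = no signal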
# Ecoli rRNA inh RFP – also measured in Ecoli rRNA inh; calls as there; RFP signal change, %; measured here: RFP humanized mutant strains;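 first replicate; 0 = DMSO median and -100 = no signal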
# The depositor's hits bear a star; i = inactive; . = not tested or not shown. This is a subset; the hit share may differ from the screen's.
# Start of the data: the first 2 records, ahead of the listing:
SMILES,Beta2AR agonist,Ecoli rRNA inh,Ecoli rRNA inh OD600,Ecoli rRNA inh RFP,FGF22 binding,ALR H2O2 inh,UCH37 inh,Ecoli growth,HNF4A DNA FP
NC(=O)C1CCCN(C(=S)NCc2ccc3c(c2)OCO3)C1 (stereo not drawn),0,27,22,-1.5,.,3,3.5,0.65,0.8
CC(C)c1c(C(=O)N/N=C/c2cccs2)nnn1-c1nonc1N,-23,-6,-11,3.6,i,-3,.,.,0.8

# The listing, from the start:
SMILES,Beta2AR agonist,Ecoli rRNA inh,Ecoli rRNA inh OD600,Ecoli rRNA inh RFP,FGF22 binding,ALR H2O2 inh,UCH37 inh,Ecoli growth,HNF4A DNA FP
NC(=O)C1CCCN(C(=S)NCc2ccc3c(c2)OCO3)C1 (stereo not drawn),0,27,22,-1.5,.,3,3.5,0.65,0.8
CC(C)c1c(C(=O)N/N=C/c2cccs2)nnn1-c1nonc1N,-23,-6,-11,3.6,i,-3,.,.,0.8
Cc1ccc(NC(=O)C(=O)NC2CCCCC2)cc1,-1,.,.,.,.,3,2.3,0.82,-3.1
CCOc1ccccc1CNC(=O)C1CCN(c2nn3c(=O)cc(C)nc3s2)CC1,-5,0,4,3.0,i,8,3.1,0.61,2.6
Cc1ccc(-c2nnc(SCC(=O)Nc3cccnc3Cl)n2N)cc1,-3,7,16,1.3,i,18,-0.8,0.65,0.0
COc1cccc(CNc2nc3cc(-c4csc5ccccc45)sc3c(=O)n2C)c1,.,9,14,2.7,i,.,.,.,-2.8
COc1ccc(C(=O)O)c(OC)n1,0,15,8,-9.8,i,-2,-3.2,0.69,2.0
O=C(/C=C/c1ccccc1)c1ccccn1,4,.,.,.,.,-5,0.9,0.73,-1.0
Cc1cccc(N2CCN(C(=O)c3nn(C)c4c3CS(=O)(=O)c3ccccc3-4)CC2C)c1 (stereo not drawn),3,-23,-35,-0.8,i,19,1.1,0.67,1.7
CC(C)CCNC(=O)CN(C(=O)CCC(=O)Nc1nccs1)c1ccc2c(c1)OCCO2,1,6,11,-3.0,i,-15,-1.9,0.72,2.3
COC(=O)c1cc(C(=O)OC)cc(-n2c(C)cc(C(=O)COC(=O)CNS(=O)(=O)c3ccc(C)cc3)c2C)c1,10,11,6,16,i,-4,3.8,0.66,-8.5
O=C(Oc1ccc(=O)n(-c2ccccc2)n1)c1ccccc1,-10,.,.,.,.,0,4.5,0.7,-0.4
CCC(CC)NC(=O)COC(=O)c1ccc2c(c1)C(=O)N(Cc1ccco1)C2=O,10,2,12,-1.6,i,0,0.7,0.64,-1.1
O=C1CCCCC1Oc1ccc2ccc(=O)oc2c1 (stereo not drawn),-2,8,7,1.4,i,-1,-113,0.7,-2.2
CCOC(=O)c1cnc(Nc2ccccc2)nc1C(F)(F)F,3,-16,-21,-3.6,i,0,2.1,0.63,2.3
Cc1cnc(NC(=O)c2cc3ccccc3o2)s1,-9,5,5,-0.9,i,-5,4.4,0.7,2.4
Cc1ccc(F)cc1CNC(=O)C1CCC(=O)N(CC2CCCCC2)C1 (stereo not drawn),6,-5,0,-0.9,i,-26,1.4,0.68,0.7
Cc1ccc(C(=O)NNC(=O)Cc2csc(-c3csc(C)n3)n2)cc1,-7,20,2,2.0,i,1,7.8,0.65,0.5
CCOC(=O)C1(CC2CC2)CCN(Cc2cnc(-c3ccccc3C)nc2)CC1,0,-30,-38,-7.1,i,22,-3.2,0.66,1.0
Cc1nn(-c2ccccc2)c(C)c1NC(=O)COC(=O)c1ccc(S(=O)(=O)C(F)F)cc1,-2,9,6,-3.0,i,-4,-0.5,0.66,3.0
O=C(C[C@H]1C/C=C\C[C@@H](Cc2ccc(F)cc2)C(=O)OC[C@@H]2CCCN2C1=O)NCCO,-5,-5,3,-3.7,i,-2,-1.1,.,0.1
CCc1c(C)sc(NC(=O)c2noc(C)c2[N+](=O)[O-])c1C#N,-1,-5,-3,0.6,i,0,6.6,0.72,1.4
Cc1ccc(S(=O)(=O)N2CCC(C(=O)OCC(=O)N3CCCCC3C)CC2)cc1C (stereo not drawn),2,-8,-7,1.5,.,-1,5.5,0.67,0.5
CCn1c(C(=O)O)c(CC(=O)Nc2cccc(C(F)(F)F)c2)c2ccccc21,2,-24,-27,-0.7,i,5,1.5,0.67,-0.9
NNC(=O)c1cc(O)c(O)c(O)c1,1,14,12,2.1,i,99*,3.1,0.7,2.5

# 3 entries from above, sorted by their value in Ecoli rRNA inh OD600, smallest number first:
canonical_smiles	Beta2AR agonist	Ecoli rRNA inh	Ecoli rRNA inh OD600	Ecoli rRNA inh RFP	FGF22 binding	ALR H2O2 inh	UCH37 inh	HNF4A DNA FP
CCn1c(C(=O)O)c(CC(=O)Nc2cccc(C(F)(F)F)c2)c2ccccc21	2	-24	-27	-0.7	i	5	1.5	-0.9
CC(C)c1c(C(=O)N/N=C/c2cccs2)nnn1-c1nonc1N	-23	-6	-11	3.6	i	-3	.	0.8
Cc1nn(-c2ccccc2)c(C)c1NC(=O)COC(=O)c1ccc(S(=O)(=O)C(F)F)cc1	-2	9	6	-3.0	i	-4	-0.5	3.0

# Reprinted at random: 3 records from the list, in no set order.
SMILES,Beta2AR agonist,Ecoli rRNA inh,Ecoli rRNA inh OD600,Ecoli rRNA inh RFP,FGF22 binding,ALR H2O2 inh,UCH37 inh,Ecoli growth,HNF4A DNA FP
NNC(=O)c1cc(O)c(O)c(O)c1,1,14,12,2.1,i,99*,3.1,0.7,2.5
Cc1cnc(NC(=O)c2cc3ccccc3o2)s1,-9,5,5,-0.9,i,-5,4.4,0.7,2.4
Cc1ccc(F)cc1CNC(=O)C1CCC(=O)N(CC2CCCCC2)C1 (stereo not drawn),6,-5,0,-0.9,i,-26,1.4,0.68,0.7

# Continuation:
SMILES,Beta2AR agonist,Ecoli rRNA inh,Ecoli rRNA inh OD600,Ecoli rRNA inh RFP,FGF22 binding,ALR H2O2 inh,UCH37 inh,Ecoli growth,HNF4A DNA FP
Cn1nc(C(C)(C)C)cc1C(=O)NCc1ccc(N2CCCC2=O)cc1,-10,.,.,.,.,-2,1.0,0.7,2.1
COc1ccc(Cl)cc1NC(=O)COC(=O)/C=C/c1c(C)nn(C2CCS(=O)(=O)C2)c1Cl (stereo not drawn),12,.,.,.,.,-1,5.0,.,-1.1
COc1cc(/C=C(\C#N)c2[nH]nc(N)c2C#N)cc(OC)c1O,-41,.,.,.,.,50,4.3,0.76,11
CC(CC(=O)N1CCN(c2cccc(Cl)c2)CC1)S(=O)(=O)c1ccc2c(c1)NC(=O)CO2 (stereo not drawn),2,6,-21,-3.3,i,-4,.,.,0.8
C#CCn1c(S(=O)(=O)Cc2ccc(C)cc2)nc(-c2ccccc2)c1-c1ccccc1,2,.,.,.,.,-2,2.9,0.75,0.7
CCN(Cc1cc(=O)n2ccsc2n1)Cc1nc2cc(OC)c(OC)cc2c(=O)[nH]1,-3,7,10,-4.7,i,2,3.7,0.72,2.4
